# Screening data (PubChem BioAssay)
# NPYLR7 ag: agonists of mosquito NPYLR7 receptor, primary screen, cell-based, Aedes aegypti, calcium fluorescence, mosquito biting behavior. AID 1259423, 2018. 0.15% of 270,000 active. Aedes aegypti neuropeptide Y-like receptor 7 (NPYLR7). activation, % at 10 µM. HEK293T NPYLR7/Galpha15, GCaMP6s calcium fluorescence; in the data active = activation above about 40%;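 also: 0% = vehicle and 100% = reference agonist at the receptor; some compounds past the cut are filed as inactive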
# NPYLR7 ag max-min: second read-out of NPYLR7 ag, no call of its own (marks repeat the call); activation, %; measured here: Max-Min RFU normalised activation; some inactives read as strong as hits;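 span of the calcium signal over five minutes; 0% = vehicle and 100% = native peptide agonist; compound fluorescence can raise it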
# Numbers without * were called inactive; & = joins results of further samples.
# Below each compound: NPYLR7 ag	NPYLR7 ag max-min
Cc1ccc2c(c1)C1(SCCN1C(=O)Nc1ccc(Cl)cc1)C(=O)N2Cc1cccc(C#N)c1 (centres undefined)
  -3	3
CCc1ccc(-c2nn(CC(=O)Nc3ccc(F)cc3F)c(=O)c3nc(C)sc23)cc1
  -2	-4
Cc1cc(/C=C/[N+](=O)[O-])c(C)n1-c1cccnc1
  -11	-13
CCCCOc1ccc(OCCSc2nc3ccccc3n2CCO)cc1
  6	14
CC(=O)Nc1ccc(CN2CCC3(CC2)C(=O)N(C)C(=O)N3CC(C)C)cc1
  5	-7
COCCNC(=O)c1cc(-c2ccc(C)cc2)nc2c1c(C)nn2C1CCS(=O)(=O)C1 (centres undefined)
  2	7
CCOC(=O)CCC(=O)N1CCN(c2ncccc2C(=O)NCC2CCCO2)CC1 (centres undefined)
  4	3
CCN1CCN(C(=O)c2cn(CC)cc3c(=O)n(-c4ccccc4)nc2-3)CC1
  -3	-8
COCCN(Cc1ccc(OC)c(OCc2nc(CO)cs2)c1)C(=O)c1cccc(OC)c1
  14	16
COC(=O)[C@H]1CCCN1C(=O)[C@@H]1[C@@H](NC(=O)NC(C)C)CCN1C(=O)c1cccn1C
  -8	-14
COc1cc(N(C)C)c([N+](=O)[O-])cc1C(=O)NCCN1CCN(C)CC1
  5	3
O=C(O)C1Nc2ccc3ccccc3c2C2C=CCC12 (centres undefined)
  1	1
Cn1nc(C(=O)Nc2ccc3c(c2)OC2(CCCC2)O3)ccc1=O
  1	7
NC1=NC(c2ccc(Br)s2)n2c(nc3ccccc32)N1 (centres undefined)
  9	3
O=C(NCCN1CCCC1)c1cnn(-c2ccccc2F)c1
  11	6
C1CCc2c(sc3nc(N4CCOCC4)nc(N4CCOCC4)c23)C1
  -3	-4
COc1ccc(-c2cc(COC(=O)Cc3ccc(F)cc3)no2)cc1OC
  -3	-5
CC(C)(C)c1[nH]nc2c1C1(C(=O)Nc3ccccc31)C(C#N)C(=N)O2 (centres undefined)
  -3	-8
COc1ccc(CCN(Cc2ccc(C)s2)C(=O)CN(C(=O)Nc2cccc(C)c2C)C(C)C)cc1OC
  -5	-11
Cc1cc(-c2nnc(CCC(=O)NC3CCc4ccccc43)o2)no1 (centres undefined)
  -2&9	-4&9
Cc1ccc(C#N)c(SCC(=O)c2ccc(Cl)cc2)n1
  8	1
COCC(=O)NCCn1nc(-c2cccnc2)ccc1=O
  -4	-8
NS(=O)(=O)c1cc2c(cc1C(F)(F)F)NCNS2(=O)=O
  -3&-2&-3	-10&-8&-6
Cc1nn(C)cc1CNC(=O)C(c1ccccc1)c1ccccc1
  -4	-4
COc1cc(I)c(C(=O)NC(C)C)cc1OC
  -4	-4
O=C(CN1CCCCCC1)Nc1cc2[nH]c(=O)[nH]c2cc1Br
  0	-3
Cc1ccc(NC(=O)CSc2nc(=O)n(Cc3ccncc3)c3c2CCC3)cc1F
  10	3
COC(=O)C1CCN(C(c2ccc(OC)c(OC)c2)C2Sc3ncnn3C2=O)CC1 (centres undefined)
  6	3
Cc1ccc(Nc2nc(C)cc(C)c2C#N)cc1
  1	-1
C/C=C/C(=O)N1CCN(c2nccc(-c3ccco3)n2)CC1
  -7	-13

# Complete entries from above. Screens in order: NPYLR7 ag | NPYLR7 ag max-min
# COCC(=O)NCCn1nc(-c2cccnc2)ccc1=O reads -4 | -8
# CCc1ccc(-c2nn(CC(=O)Nc3ccc(F)cc3F)c(=O)c3nc(C)sc23)cc1 reads -2 | -4
# Cc1ccc2c(c1)C1(SCCN1C(=O)Nc1ccc(Cl)cc1)C(=O)N2Cc1cccc(C#N)c1 (centres undefined) reads -3 | 3

# As entered above.
# In NPYLR7 ag max-min, O=C(O)C1Nc2ccc3ccccc3c2C2C=CCC12 (centres undefined) reads 1
# In NPYLR7 ag max-min, O=C(NCCN1CCCC1)c1cnn(-c2ccccc2F)c1 reads 6
# In NPYLR7 ag max-min, Cc1cc(/C=C/[N+](=O)[O-])c(C)n1-c1cccnc1 reads -13
# In NPYLR7 ag max-min, CCc1ccc(-c2nn(CC(=O)Nc3ccc(F)cc3F)c(=O)c3nc(C)sc23)cc1 reads -4
# In NPYLR7 ag, COc1cc(I)c(C(=O)NC(C)C)cc1OC reads -4

# Following part
# Below each compound: NPYLR7 ag	NPYLR7 ag max-min
COCCN(CC(=O)N(CCc1c[nH]c2ccccc12)Cc1ccc(OC)c(OC)c1)S(=O)(=O)c1ccc(Cl)cc1
  -6	-3
CC(C)(C)NN=Cc1cc(Br)c(O)c(Br)c1
  4	3
CN1CC2(CCCN(CC(=O)NCc3ccccn3)CC2)OC1=O (centres undefined)
  4	3
CCCS(=O)(=O)N1CCN(c2nc(-c3ccccc3)nc(C)c2Cc2ccc(C)cc2)CC1
  2	5
CSc1ccc(C(=O)C2CCCN(Cc3cc(=O)c4ccccc4[nH]3)C2)cc1 (centres undefined)
  6	-12
CC1(C(=O)NCc2ccccc2Br)CCN1C(=O)Cc1ccc(-c2ccccc2)cc1 (centres undefined)
  -2	-3
CC(C)(C)OC(=O)NCC1(C(=O)O)CCCC1
  0	18
O=S(=O)(NCCOc1cc(N2CCCC2)ncn1)c1ccc(C(F)(F)F)cc1
  1	0
Cc1ccc(-c2nc(C)sc2CC(=O)NC(C)C2CC2)cc1 (centres undefined)
  0	2
Cc1cc(C)c(Cn2ccnc2CN(C(=O)c2ccccc2F)C(C)C)c(C)c1
  -11	-6
O=C(O)CC(c1cccc(F)c1)c1cn(Cc2ccccc2)c2ccc([N+](=O)[O-])cc12 (centres undefined)
  -1	2
COc1cccc(CN2CCCn3cccc3C2c2ccc(Cl)cc2)c1O (centres undefined)
  14	15
Cc1ccsc1CN(C)C(=O)CCc1nnc(CCC2CCCCC2)o1
  -1	-2
Cc1cccc(CC2SC(=Nc3ccccn3)NC2=O)c1 (centres undefined)
  -9	-9
Cc1cc(CN2CCN([C@@H]3C[C@H]4C[C@@H](c5ccccc5)OC[C@@]4(C)C3)CC2)nn1C
  10	21
Cc1cc(C)cc(OCC(=O)NNC(=O)c2cc3ccccc3oc2=O)c1
  -3	-10
O=C(/C=C/c1ccccc1)N(CCCN1CCOCC1)CC(=O)N(Cc1ccc2c(c1)OCO2)Cc1ccco1
  0	9
CCS(=O)(=O)c1ccc2oc(-c3ccc(NC(=O)c4ccccc4F)cc3Cl)nc2c1
  20	22
O=C1N(CCc2ccccc2)CCCC1(O)CNCc1ccc(Cl)cc1 (centres undefined)
  8	7
CC(=O)OCC(=O)N1CCN(c2nccc(-c3ccc4c(c3)OCO4)n2)CC1
  -3	18
Cc1cc(NC(=O)C(C)Sc2cnnc3ccccc23)no1 (centres undefined)
  -5	-1
COc1ccc(CCN(C)C(=O)c2cc(-c3ccco3)nn2-c2ccc([N+](=O)[O-])cc2)cc1OC
  13	14
CCCc1ncncc1C(=O)NCc1cccnc1N(C)C
  3	1
Cc1nc(NC(C)c2nncn2C)c2c(CC(C)C)csc2n1 (centres undefined)
  4	3
COCCN(Cc1ccc(OS(=O)(=O)c2cccc(C(F)(F)F)c2)cc1)C(=O)Nc1ccc(Cl)cc1
  -8	-13
COc1ccc(/C=C2\C=C(c3ccccc3)N(c3ccc(Cl)cc3Cl)C2=O)cc1Br
  -1	3
CS(=O)(=O)CCN1C(=O)C(c2ccccc2)N(Cc2ccccc2)C1=O (centres undefined)
  0	0
O=C(CNC(=O)Nc1cc(F)ccc1N1CCCCC1)NC1CC1
  12	4
CC(=O)NC1=NN(C(C)=O)C2(S1)C(=O)N(C(C)=O)c1ccc(Cl)cc12 (centres undefined)
  8	0
O=c1c2nc(N3CCOCC3)sc2c(-c2ccco2)nn1Cc1cccc(F)c1
  -1	-7

# Another view of some results above:
structure	NPYLR7 ag	NPYLR7 ag max-min
Cc1cc(CN2CCN([C@@H]3C[C@H]4C[C@@H](c5ccccc5)OC[C@@]4(C)C3)CC2)nn1C	10	21
Cc1cc(C)cc(OCC(=O)NNC(=O)c2cc3ccccc3oc2=O)c1	-3	-10
O=C(/C=C/c1ccccc1)N(CCCN1CCOCC1)CC(=O)N(Cc1ccc2c(c1)OCO2)Cc1ccco1	0	9
CCS(=O)(=O)c1ccc2oc(-c3ccc(NC(=O)c4ccccc4F)cc3Cl)nc2c1	20	22
O=C1N(CCc2ccccc2)CCCC1(O)CNCc1ccc(Cl)cc1 (centres undefined)	8	7
CC(=O)OCC(=O)N1CCN(c2nccc(-c3ccc4c(c3)OCO4)n2)CC1	-3	18

# (continued)
# Below each compound: NPYLR7 ag	NPYLR7 ag max-min
CCNC(=O)C1(C)CCCN(Cc2ccc(Oc3ccccc3)cc2)C1 (centres undefined)
  3	5
O=c1c2c(nc3c(-c4cccc(Br)c4)c[nH]n13)CCCC2
  5	3
Cc1ccc(-n2nc(-c3ccccc3)cc2C(=O)N2CCN(c3ccccc3Cl)CC2)c(C)c1
  16	28
COc1cc(OC)cc(C(=O)NCC2CCCN(C(=O)C3=C(C)OCCO3)C2)c1 (centres undefined)
  -4	-8
CCN(C(=O)CNC(=O)NCc1ccco1)c1nc(C)cs1
  0	-2
O=C(NCC1CCCCC1)c1csc([C@@H]2O[C@H](CO)[C@H](O)[C@H](O)[C@H]2O)n1
  2	2
CCOc1ccc(-n2c(CNC(=O)c3ccco3)nnc2SCC(=O)Nc2ccc(F)cc2)cc1
  -7	-13
COc1ccc(NC2CCCN(C(=O)COc3ccc(Cl)cc3C)C2)cc1OC (centres undefined)
  2	-5
COCCCNC(=O)c1ccc(C(F)(F)F)nc1
  2	-1
NC(=O)CC1C(=O)NCCN1Cc1ccccc1C(F)(F)F (centres undefined)
  6	3
O=C(NC(=O)C1CCNCC1)c1cc2c(s1)CSC2
  3	2
CC(NC(=O)CNc1cccc(C(=O)N2CCCC2)c1)C12CC3CC(CC(C3)C1)C2 (centres undefined)
  -1	0
COc1ccc(F)c(CN2CCCC3(CCN(C(=O)c4cc5ccccc5[nH]4)C3)C2)c1 (centres undefined)
  12	8
Cc1ccc[n+](-c2nc3ccccc3nc2NS(=O)(=O)c2ccccc2)c1
  7	11
Cc1nn(-c2ccccc2)c(C)c1CN1CCC2(CC1)Nc1ccccc1C(=O)N2c1cccnc1
  0	3
CC(=O)N1CCCn2nc(C(=O)NC(C)(C)CNc3cccc(Cl)c3)cc2C1
  -1	6
COc1ccc(C(=O)N(Cc2cc(NC(=O)c3cccc(F)c3)ccc2N(C)C)CC2CC2)cc1
  6	17
CO[C@H]1[C@H](NC(=O)c2ccco2)c2ccccc2C12CCN(Cc1cc3ccccc3s1)CC2
  18	10
Cn1cnc2c1c(=O)n(CCNCCCO)c(=O)n2C
  1	4
O=C(NCc1ccco1)c1cc(S(=O)(=O)NCc2ccco2)c[nH]1
  0	-1
COc1ccc(Br)cc1C=CC(=O)c1ccc([N+](=O)[O-])cc1
  13	17
O=C(CSc1nnc(NC2CC2)s1)NN1C(=O)NC2(CCCCC2)C1=O
  2	10
Fc1ccccc1-c1noc2c1CN(Cc1ccc(-n3cccn3)cc1)CC2
  14	13
O=C(NCCCNC(=O)C1Cc2cc(Cl)ccc2O1)c1cccs1 (centres undefined)
  9	7
COc1ccc(Oc2cc(N3CCC(Cc4ccccc4)CC3)ncn2)cc1
  13	10
COc1cc(C(=O)NCc2ccc(OCCN(C)C)cc2)cc(OC)c1OC
  -8&-12&-2	-15&0&-5
CCOC(=O)N1CCN(Cc2nc3c(c(=O)n(C)c(=O)n3C)n2C(C)C)CC1
  6	1
COc1ccc(Br)cc1S(=O)(=O)N(C1CCCC1)C1CCCC1
  2	4
CCOC(=O)N1CCC(NCCS(=O)(=O)N(C)C)CC1
  0	2
Cc1ccc2oc3c(c(=O)c2c1)C(c1ccc(C(C)C)cc1)N(c1nccs1)C3=O (centres undefined)
  6	5
COc1ccc(C(C)=O)cc1CN1C(=O)C(C)ON=C1c1ccc(F)cc1 (centres undefined)
  7	3

# A second format for part of the listing above.
compound | NPYLR7 ag | NPYLR7 ag max-min
COc1cc(C(=O)NCc2ccc(OCCN(C)C)cc2)cc(OC)c1OC | -8&-12&-2 | -15&0&-5
COc1ccc(/C=C2\C=C(c3ccccc3)N(c3ccc(Cl)cc3Cl)C2=O)cc1Br | -1 | 3
O=C(NCCN1CCCC1)c1cnn(-c2ccccc2F)c1 | 11 | 6

# These rows are one share of the data. The share of hits here may be higher or lower than overall.
